Hedgehog: Drosophila hedgehog isoform A inhibitors, primary screen, biochemical, plate reader, single concentration (AID 588832) | Biochemical plate reader assay, Hedgehog inhibition; hits give high values | inhibition, % at 30.3 µM | 8,000 tested, under 10 active; in the data active = inhibition from about 57%;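 also: 0% = neutral control wells and 100% = positive control wells; cholesterol-driven self-cleavage of fly hedgehog protein by fluorescence polarization; read one hour after cholesterol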
* marks the source's active call; other numbers are inactive results. Only part of the results is shown; count on the stated rates, not on these rows.

Screening COc1ccc(C=O)cc1 returned Hedgehog 3.6.
CC(=O)OC1CC2OC3C=C(C)CCC3(C)C1(C)C21CO1 (stereo not given) was read as Hedgehog 3.4.
Cc1cc(=O)oc2cc(OCC(=O)N3C[C@H]4C[C@@H](C3)c3cccc(=O)n3C4)ccc12 was read as Hedgehog 1.7.
For O=C(Cc1ccccc1)OCc1ccccc1 the results were Hedgehog 5.4.
For COc1ccn(C)c(=O)c1C#N the results were Hedgehog 8.7.
Screening Cc1cccc([N+](=O)[O-])c1 returned Hedgehog 5.4.
`Cc1c(C)c2ccc(OCC(=O)N3CCC(C(=O)O)(c4ccccc4)CC3)c(C)c2oc1=O` gave Hedgehog 6.8.
For CC(=O)CCC(C)=O the results were Hedgehog 0.0.
For Clc1ccc(C(Cl)(Cl)Cl)c(Cl)c1 the results were Hedgehog 3.6.
`OCC1CO1` (stereo not given) gave Hedgehog 10.7.
C[C@H]1[C@@H](OS(=O)(=O)O)C[C@@H]2C[C@H]([C@@H](O)c3cc(=O)[nH]c(=O)[nH]3)NC3=NC[C@H]1N32 was read as Hedgehog 7.1.
`CC(=O)c1ccc(NC(=O)N2C[C@H]3C[C@@H](C2)c2cccc(=O)n2C3)cc1` gave Hedgehog 5.2.
For COc1ccccc1CNC(=O)CCC(=O)N1C[C@H]2C[C@@H](C1)c1cccc(=O)n1C2 the results were Hedgehog 8.7.
Screening CCC(C(=O)N1C[C@H]2C[C@@H](C1)c1cccc(=O)n1C2)c1ccccc1 (stereo not given in full) returned Hedgehog 7.2.
Screening c1cc2c(cc1[C@H]1OCC3C1CO[C@@H]3c1ccc3c(c1)OCO3)OCO2 (stereo not given in full) returned Hedgehog 5.2.
For CCN1C[C@]2(COC)CC[C@H](O)[C@@]34C5C[C@@H]6[C@@H](OC)C[C@@](O)(C5[C@H]6O)[C@](O)([C@@H](OC)C23)[C@@H]14 (stereo not given in full) the results were Hedgehog 6.9.
`OCCOc1ccccc1` gave Hedgehog 8.6.
Screening O=C(CCC(=O)N1C[C@H]2C[C@@H](C1)c1cccc(=O)n1C2)NCc1ccc(F)cc1 returned Hedgehog 1.8.
Cc1cc(OCC(=O)N2CCC(C(=O)O)CC2)c2c3c(c(=O)oc2c1)CCC3 was read as Hedgehog 9.0.
Screening COc1ccc(-c2cc(=O)oc3c(C)c(OC(C)C(=O)N4C[C@H]5C[C@@H](C4)c4cccc(=O)n4C5)ccc23)cc1 (stereo not given in full) returned Hedgehog 6.9.

Sorted by formula weight (high to low): part of the list above
C[C@H]1[C@@H](OS(=O)(=O)O)C[C@@H]2C[C@H]([C@@H](O)c3cc(=O)[nH]c(=O)[nH]3)NC3=NC[C@H]1N32 was read as Hedgehog 7.1.
Screening c1cc2c(cc1[C@H]1OCC3C1CO[C@@H]3c1ccc3c(c1)OCO3)OCO2 (stereo not given in full) returned Hedgehog 5.2.
`OCCOc1ccccc1` gave Hedgehog 8.6.

(next part)
CCCc1cc(=O)oc2cc(OCC(=O)N3CCC(C(=O)O)(c4ccccc4)CC3)ccc12 was read as Hedgehog 12.3.
Screening COC(=O)C1C(OC(=O)c2ccccc2)CC2CCC1N2C (stereo not given) returned Hedgehog 5.2.
N[C@@H](Cc1ccccc1)C(=O)N1C[C@H]2C[C@@H](C1)c1cccc(=O)n1C2 was read as Hedgehog 3.5.
`C[C@@H]1CC[C@H]2[C@@H](C)C(=O)O[C@@H]3O[C@@]4(C)CC[C@@H]1[C@]32OO4` gave Hedgehog 3.2.
O=C(COc1ccc2ccc(=O)oc2c1)N1C[C@H]2C[C@@H](C1)c1cccc(=O)n1C2 was read as Hedgehog 0.0.
Screening C[N+](C)(C)CCc1ccc(O)cc1 returned Hedgehog 8.7.
Cc1cc(OCC(=O)NCC2CCC(C(=O)O)CC2)c2c3c(c(=O)oc2c1)CCC3 (stereo not given) was read as Hedgehog 6.5.
Cc1cnc[nH]1 was read as Hedgehog 3.6.
CC(C)=CCc1c(O)cc2c(c1O)C(=O)CC(c1ccc(O)cc1)O2 (stereo not given) was read as Hedgehog 8.6.
Screening C=C1[C@@H](OC(C)=O)[C@]23C[C@@H]1[C@@H](OC(C)=O)CC2[C@]12C4C[C@H]3[C@H]1N(CC)C[C@]4(C)CC[C@@H]2O (stereo not given in full) returned Hedgehog 3.3.
`COc1ccc(C(c2ccc(OC)cc2)C(Cl)(Cl)Cl)cc1` gave Hedgehog 0.0.
Screening C[C@H](NC(=O)N1C[C@H]2C[C@@H](C1)c1cccc(=O)n1C2)C(=O)Nc1ccc(F)c(F)c1 returned Hedgehog 3.4.
`C=C1C2[C@H](OC(C)=O)[C@@H]3CC(=O)[C@]4(C)OC[C@@]3(C)[C@@]4(O)[C@@H](OC(C)=O)[C@H](OC(C)=O)[C@@]2(COC(=O)c2ccccc2)[C@@H](OC(C)=O)C[C@@H]1O` (stereo not given in full) gave Hedgehog 10.5.
For CCC(=O)c1ccc(OC)c(OC)c1 the results were Hedgehog 3.5.
O=[N+]([O-])c1cccc(CCl)c1 was read as Hedgehog 5.4.
For CCc1ccccc1NC(=O)N1C[C@H]2C[C@@H](C1)c1cccc(=O)n1C2 the results were Hedgehog 7.0.
`C[C@]12CCC(=O)C[C@H]1CC[C@@H]1[C@@H]2CC[C@]2(C)C(=O)CC[C@@H]12` gave Hedgehog 7.2.
C=C(Cl)CSC(=S)N(CC)CC was read as Hedgehog 1.8.
Screening O=C1CC(N2CC=C(c3ccccc3)CC2)C(=O)N1c1ccc(F)cc1 (stereo not given) returned Hedgehog 31.9.
Screening O=[N+]([O-])c1ccccc1CCl returned Hedgehog 5.4.
For Cc1cc(OCC(=O)NC(Cc2ccc(Cl)cc2)C(=O)O)c2c3c(c(=O)oc2c1)CCC3 (stereo not given) the results were Hedgehog -5.4.
Screening COc1cc2c(c(OC)c1OC)-c1ccc(O)c(=O)cc1[C@@H](N)CC2 returned Hedgehog 16.2.
Screening Cc1ccc2c(C)cccc2c1 returned Hedgehog 1.8.
Cc1cccc(C#N)c1 was read as Hedgehog 8.9.
For CN1C(=O)c2ccccc2NC(=O)[C@]12O[C@@H]2c1ccccc1 the results were Hedgehog 8.8.
Screening CC(=O)/C=C/c1ccccc1 returned Hedgehog 6.9.
c1ccc(-c2ccncc2)cc1 was read as Hedgehog 5.2.
`Cn1c(=O)cc(OCC(=O)N2CCN(C3CCCCC3)CC2)c2ccccc21` gave Hedgehog 12.9.
Clc1cc(Cl)c(-c2cc(Cl)c(Cl)cc2Cl)cc1Cl was read as Hedgehog 10.7.
For CCN1C[C@@]2(COC)C3[C@@H](OC)[C@H]4[C@@H]1[C@@]3(C1C[C@H]3[C@H](OC(C)=O)C1[C@]4(OC(C)=O)C[C@H]3OC)[C@@H](OC)C[C@H]2OC(C)=O (stereo not given in full) the results were Hedgehog 1.7.
`Oc1ccccc1Cl` gave Hedgehog 8.6.
Screening O=c1[nH]c2ccccc2o1 returned Hedgehog 3.3.
`COc1cc2c(cc1OC)C13CCN4CC5=CCOC6CC(=O)N2C1C6C5CC43` (stereo not given) (tested in a mixture with another compound) gave Hedgehog 10.3.
Screening Cc1c(CC(=O)N2C[C@H]3C[C@@H](C2)c2cccc(=O)n2C3)c(=O)oc2cc(O)c(Cl)cc12 returned Hedgehog 1.7.
Screening O=C(CCNC(=O)N1C[C@H]2C[C@@H](C1)c1cccc(=O)n1C2)Nc1cccc(Cl)c1 returned Hedgehog 7.2.
CN1C2CCC1CC(OC(=O)c1cccc(O)c1)C2 (stereo not given) was read as Hedgehog 4.9.
For CCN1C[C@]2(CO)CC[C@H](OC)[C@@]34C5C[C@H]6[C@H](OC)C5[C@](O)(C[C@H]6OC)[C@@](O)(C(OC)C23)[C@@H]14 (stereo not given in full) the results were Hedgehog 10.3.
For CC(C)CNC(=O)/C=C/C=C/CCCCCC/C=C/c1ccc2c(c1)OCO2 the results were Hedgehog 8.2.
Screening CCOc1cc(C=O)ccc1O returned Hedgehog 5.0.
`CC(C)NS(=O)(=O)c1ccc(OCC(=O)N2CCN(C)CC2)cc1` gave Hedgehog 20.8.

Sorted by molecular weight (falling): part of the list above
For CCN1C[C@@]2(COC)C3[C@@H](OC)[C@H]4[C@@H]1[C@@]3(C1C[C@H]3[C@H](OC(C)=O)C1[C@]4(OC(C)=O)C[C@H]3OC)[C@@H](OC)C[C@H]2OC(C)=O (stereo not given in full) the results were Hedgehog 1.7.
For CCN1C[C@]2(CO)CC[C@H](OC)[C@@]34C5C[C@H]6[C@H](OC)C5[C@](O)(C[C@H]6OC)[C@@](O)(C(OC)C23)[C@@H]14 (stereo not given in full) the results were Hedgehog 10.3.
For Cc1cc(OCC(=O)NC(Cc2ccc(Cl)cc2)C(=O)O)c2c3c(c(=O)oc2c1)CCC3 (stereo not given) the results were Hedgehog -5.4.
Screening O=C(CCNC(=O)N1C[C@H]2C[C@@H](C1)c1cccc(=O)n1C2)Nc1cccc(Cl)c1 returned Hedgehog 7.2.
`COc1cc2c(cc1OC)C13CCN4CC5=CCOC6CC(=O)N2C1C6C5CC43` (stereo not given) (tested in a mixture with another compound) gave Hedgehog 10.3.
For CC(C)CNC(=O)/C=C/C=C/CCCCCC/C=C/c1ccc2c(c1)OCO2 the results were Hedgehog 8.2.
Clc1cc(Cl)c(-c2cc(Cl)c(Cl)cc2Cl)cc1Cl was read as Hedgehog 10.7.
`CC(C)NS(=O)(=O)c1ccc(OCC(=O)N2CCN(C)CC2)cc1` gave Hedgehog 20.8.
Screening O=C1CC(N2CC=C(c3ccccc3)CC2)C(=O)N1c1ccc(F)cc1 (stereo not given) returned Hedgehog 31.9.
For CN1C(=O)c2ccccc2NC(=O)[C@]12O[C@@H]2c1ccccc1 the results were Hedgehog 8.8.
CN1C2CCC1CC(OC(=O)c1cccc(O)c1)C2 (stereo not given) was read as Hedgehog 4.9.
C=C(Cl)CSC(=S)N(CC)CC was read as Hedgehog 1.8.
Screening O=[N+]([O-])c1ccccc1CCl returned Hedgehog 5.4.
Screening CCOc1cc(C=O)ccc1O returned Hedgehog 5.0.
Screening Cc1ccc2c(C)cccc2c1 returned Hedgehog 1.8.
c1ccc(-c2ccncc2)cc1 was read as Hedgehog 5.2.
Screening CC(=O)/C=C/c1ccccc1 returned Hedgehog 6.9.
Screening O=c1[nH]c2ccccc2o1 returned Hedgehog 3.3.
`Oc1ccccc1Cl` gave Hedgehog 8.6.
Cc1cccc(C#N)c1 was read as Hedgehog 8.9.

(listing goes on)
For CN1C[C@H](CO)C=C2c3cccc4[nH]cc(c34)C[C@H]21 the results were Hedgehog -1.9.
C=CC12CN(C)[C@@H]3C4CO[C@H](C[C@H]41)[C@]1(C(=O)Nc4ccccc41)[C@@H]32 (stereo not given in full) was read as Hedgehog 8.6.
For Cc1ccc(N)c(N)c1 the results were Hedgehog 8.9.
Screening O=C1Nc2ccc(Br)cc2C(c2ccccc2Cl)=NC1O (stereo not given) returned Hedgehog 6.8.
`Cc1cc(OCC(=O)N2CCC(C(=O)O)(c3ccccc3)CC2)c2c(C)cc(=O)oc2c1` gave Hedgehog 3.6.
For COC(=O)CSC1=NN1c1cc(C)nc(N)n1 the results were Hedgehog -4.5.
For OCCOCCO the results were Hedgehog 10.3.
`O=C(CCc1ccc(O)cc1)N1C[C@H]2C[C@@H](C1)c1cccc(=O)n1C2` gave Hedgehog 1.6.
COc1cc(C)cc2oc(=O)c(CC(=O)N3C[C@H]4C[C@@H](C3)c3cccc(=O)n3C4)c(C)c12 was read as Hedgehog 6.9.
O=[N+]([O-])c1ccc(Cl)c(Cl)c1Cl was read as Hedgehog 0.0.
Oc1c(Br)cc(Br)cc1Br was read as Hedgehog 3.6.
Screening OCC(Cl)CCl (stereo not given) returned Hedgehog 8.9.
`C/C=C(\C)C(=O)N[C@@H](c1ccccc1)[C@@H](O)C(=O)O[C@H]1C[C@@]2(O)[C@@H](OC(=O)c3ccccc3)C3[C@](C)(C(=O)[C@H](OC(C)=O)C(=C1C)C2(C)C)[C@@H](O)C[C@H]1OC[C@@]31OC(C)=O` (stereo not given in full) gave Hedgehog 3.4.
COC12C(COC(N)=O)C3=C(C(=O)C(C)=C(N)C3=O)N1CC1C2N1C (stereo not given) was read as Hedgehog 5.2.
COc1ccc(CNC(=O)CCC(=O)N2C[C@H]3C[C@H](C2)c2cccc(=O)n2C3)cc1OC was read as Hedgehog 8.2.
For O=C(O)COc1ccccc1 the results were Hedgehog 3.6.
COc1ccc2[nH]cc(C(=O)CN(C)C)c2c1 was read as Hedgehog 4.9.
